Source: PubChem (ICCB-Longwood Screening Facility, Harvard Medical School)
MbtI inh: MbtI salicylate synthase inhibitors, primary screen, biochemical, fluorescence intensity; P9WFX0; purified MbtI enzyme, fluorescence intensity read-out; inhibition, %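 (about 17 µg/mL by stock and volumes)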; actives 0.89% (n = 100,000);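 active = above 50% in both replicates, above 80% if mildly self-fluorescent; inactive = the rest, strongly fluorescent compounds included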;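 note: 0% = mean of negative and 100% = mean of positive controls; one replicate is shown; some compounds called inactive have numbers as strong as hits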
Target sequence (P9WFX0 whole entry, looked up): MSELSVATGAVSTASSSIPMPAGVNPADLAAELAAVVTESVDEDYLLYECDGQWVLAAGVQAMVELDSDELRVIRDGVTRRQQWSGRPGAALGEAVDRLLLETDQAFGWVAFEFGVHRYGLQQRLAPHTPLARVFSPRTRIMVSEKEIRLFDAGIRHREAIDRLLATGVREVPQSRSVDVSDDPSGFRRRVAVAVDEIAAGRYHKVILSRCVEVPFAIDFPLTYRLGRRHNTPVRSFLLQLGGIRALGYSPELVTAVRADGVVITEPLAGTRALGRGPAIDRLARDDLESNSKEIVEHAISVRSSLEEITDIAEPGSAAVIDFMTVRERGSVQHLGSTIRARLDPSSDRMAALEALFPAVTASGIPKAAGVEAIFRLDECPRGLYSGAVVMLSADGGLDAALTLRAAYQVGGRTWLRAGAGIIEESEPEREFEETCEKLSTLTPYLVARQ
Polio RdRp inh: poliovirus RdRp elongation inhibitors, primary screen, biochemical, fluorescence polarization, total intensity. Genome polyprotein (Poliovirus type 1 (strain Mahoney)), P03300. actives 0.66% (n = 150,000). poliovirus polymerase elongation; hits give low values. % elongation, % (compound at 16.7 µg/mL); in the data active = % elongation below about 90%; note: some results filed as inactive read as strong as hits
Target sequence (P03300 1749-2209 limits assumed): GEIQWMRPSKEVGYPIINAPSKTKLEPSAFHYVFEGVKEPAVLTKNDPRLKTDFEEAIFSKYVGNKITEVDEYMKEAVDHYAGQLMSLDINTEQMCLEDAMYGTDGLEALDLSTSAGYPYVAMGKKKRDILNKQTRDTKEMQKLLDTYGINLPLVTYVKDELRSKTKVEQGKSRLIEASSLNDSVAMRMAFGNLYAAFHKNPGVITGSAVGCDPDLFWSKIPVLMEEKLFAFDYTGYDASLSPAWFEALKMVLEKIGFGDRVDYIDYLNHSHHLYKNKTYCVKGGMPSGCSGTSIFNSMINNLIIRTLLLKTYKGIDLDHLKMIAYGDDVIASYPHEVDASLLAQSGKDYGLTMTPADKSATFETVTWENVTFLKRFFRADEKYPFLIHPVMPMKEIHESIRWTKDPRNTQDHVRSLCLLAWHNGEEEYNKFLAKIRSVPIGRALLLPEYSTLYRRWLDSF
MenB inh: M. tuberculosis MenB inhibitors, primary screen, biochemical, absorbance; 1,4-dihydroxy-2-naphthoyl-CoA synthase (Mycobacterium tuberculosis (strain ATCC 25618 / …; MenB enzyme assay, absorbance read-out; some hits fall short of the stated cut; inhibition, %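 (about 12 µg/mL by stock and volumes)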; actives 0.43% (n = 100,000); AID 540299, 2011;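 active = mean of two replicates above 30%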;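 note: 0% = no compound and 100% = wells with inactive enzyme; the first replicate is given; strong numbers were not always called active; inactives centre near -10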
Polio RdRp inh intensity: recorded beside Polio RdRp inh, whose call it bears; % elongation; measured here: total intensity read-out; formula for this scale not given here;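 total fluorescence in place of polarization; lower means less elongation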
* hit, by the source's call; / = no result given; & = joins results of further samples. An unsorted share of the library; any-hit rate near 2%.

SMILES | MbtI inh | Polio RdRp inh | Polio RdRp inh intensity | MenB inh
COC(=O)c1cc(S(=O)(=O)N2CCC(c3ccccc3)C2)c[nH]1 (stereo unspecified) | 13 | 102 | 102 | -3
CCOC(=O)Cc1csc(SCc2nc3sc4c(c3c(=O)[nH]2)CCCC4)n1 | 22 | 89 | 220 | -6
O=C(CN1CCOCC1)N1CCN(c2ccccc2)CC1 | -7 | 102 | 102 | -20
CC(=O)Nc1ccc(NC(=O)Cn2cc3c(n2)CCC(C)C3)cc1 (stereo unspecified) | -5 | 101 | 104 | -12
CCn1c(=O)cc(SCC(=O)NCc2cccs2)c2ccccc21 | 13 | 102 | 105 | -5
CCCCc1ccc(NC(=O)N2CCN(c3cc(C)nc4ccccc34)CC2)c(C)c1 | 4 | 96 | 101 | 0
O=C(CN1CCCCC1)Nc1cccc2nsnc12 | -12 | 104 | 108 | -30
O=C(CCCn1c(=O)c2cccn2c2ccccc21)NC1CCCC1 | 0 | 101 | 97 | -16
COc1ccccc1C(CC#N)c1ccco1 (stereo unspecified) | 1 | 100 | 103 | -33
Cc1nc(-c2ccc(S(=O)(=O)NCC3CCN(C(=O)OC(C)(C)C)CC3)s2)cs1 | 14 | 102 | 97 | -6
CCC1(c2ccc(N)cc2)CCC(=O)NC1=O (stereo unspecified) | -13&-13 | 98&99 | 102&101 | 0&17
COC1OC(COC(C)=O)C(OC(C)=O)C(C#N)(C#N)C1OC(C)=O (stereo unspecified) | / | 100 | 103 | 4
O=C(c1ccccc1)c1cccn1CC(=O)N1CCN(c2ccc(F)cc2)CC1 | 1 | 106 | 99 | -33
COc1ccc(Br)cc1CNc1ccccc1 | / | 99 | 104 | 9
CC(C)Cn1c(=S)[nH]c2cc(C(=O)NCc3ccco3)ccc2c1=O | 16 | / | / | -16
Cc1csc(-c2coc3c(C)c(O)c(CN4CCN(CCO)CC4)cc3c2=O)n1 | 1 | 102 | 102 | 8
COc1cc(CC(=O)OCC(=O)C(C)(C)C)cc(OC)c1OC | -1 | 104 | 109 | 16
CN(CC(=O)Nc1ccc2c(c1)OCCCO2)Cc1ccc2c(c1)OCCO2 | -11 | 106 | 109 | -3
Cc1cc(NC(=O)CSc2nc(C3CCCCC3)nc3sc(C)c(C)c23)no1 | -6 | 102 | 103 | -20
O=C(CSc1cccc[n+]1[O-])c1cc2c3c(c1)CC(=O)N3CCC2 | -12 | 109 | 123 | -26
CCOC(=O)c1cnc2cc(C(F)(F)F)ccc2c1N(C)Cc1ccccc1 | -20 | 102 | 105 | -27
C(=C\c1ccccc1)/CNCCCN1CCOCC1 | -7 | 103 | 101 | -53
Cn1c(=O)n(C)c2cc(/C=C3/NC(=O)NC3=O)ccc21 | -5 | 101 | 106 | -21
CC(NC(=O)c1ccc(C(C)(C)C)cc1)C(N)=O (stereo unspecified) | -3 | 98 | 102 | -23
Cc1nn(CC(=O)N(C)C2CCCCC2)c(=S)n1C | -8 | 104 | 106 | 5

3 successive records from above:
SMILES | MbtI inh | Polio RdRp inh | Polio RdRp inh intensity | MenB inh
Cn1c(=O)n(C)c2cc(/C=C3/NC(=O)NC3=O)ccc21 | -5 | 101 | 106 | -21
CC(NC(=O)c1ccc(C(C)(C)C)cc1)C(N)=O (stereo unspecified) | -3 | 98 | 102 | -23
Cc1nn(CC(=O)N(C)C2CCCCC2)c(=S)n1C | -8 | 104 | 106 | 5

More compounds:
SMILES | MbtI inh | Polio RdRp inh | Polio RdRp inh intensity | MenB inh
O=C(CN1C(=O)c2cccnc2Sc2ccccc21)N1CCC2(CC1)OCCO2 | -22 | 102 | 102 | -20
O=C(c1cnn(-c2ccc(C(F)(F)F)cn2)c1)c1ccccc1O | -10 | 109 | 107 | -1
COc1ccc(C2C(=O)c3ccccc3C2=O)cc1OC | 13 | 100 | 96 | -4
CN(C)S(=O)(=O)c1ccc(C(=O)NCc2ccccc2CN2CCOCC2)cc1 | 1 | 110 | 105 | -8
N#Cc1nncn1-c1nc(-c2cccs2)nc2scc(-c3ccccc3)c12 | 113 | 100 | 103 | -1
CN(C)S(=O)(=O)c1ccc(C(=O)Nc2ncnc3sccc23)cc1 | 4 | 102 | 102 | -8
COC(=O)c1sc(S(=O)(=O)Nc2cccc(C(F)(F)F)c2)c(C(=O)OC)c1C | -2 | 104 | 108 | -9
Nc1ccc(S(=O)(=O)C(F)F)cc1 | 10 | 102 | 97 | 5
Cc1ccc(CNCC(O)COC2CCCc3ccccc32)n1C (stereo unspecified) | -3 | 108 | 117 | -17
COc1ccc(C2C(C#N)=C(SCC(=O)NCc3ccc4c(c3)OCO4)NC3=C2C(=O)CC(C)(C)C3)cc1 (stereo unspecified) | 23 | / | / | -24
COc1ccccc1NC(=O)c1cc(Cl)nnc1Cl | -1 | 101 | 105 | /
C[C@H]1O[C@@H](O[C@H]2[C@@H](O)C[C@H](O[C@H]3[C@@H](O)C[C@H](O[C@H]4CC[C@]5(C)C6CC[C@]7(C)[C@@H](C8=CC(=O)OC8)CC[C@]7(O)C6CC[C@@H]5C4)O[C@@H]3C)O[C@@H]2C)C[C@H](O)[C@@H]1O (stereo partly specified) | -16 | 99 | 104 | 2
O=C(O)CCC(=O)Nc1ccccc1Cl | 6 | 102 | 98 | 10
CCN(CC)CCc1nnc(NC(=O)c2ccccc2)s1 | 19 | 104 | 100 | -14
CCCCCCCCCCCCCCCC(=O)OC[C@H](COP(=O)([O-])OCC[N+](C)(C)C)OC(C)=O | -22 | 102&101 | 105&104 | 1
CCOC(=O)c1cc(C(=O)NN)c(=O)[nH]c1C | -2 | 106 | 101 | -11
CCOc1cc(C)cc2oc(=O)cc(CC)c12 | -14 | 100 | 101 | -24
CN(CC(=O)Nc1ccc(N2CCOCC2)cc1)Cn1nc(Nc2ccccc2F)sc1=S | 99* | 96 | 87 | -31
Cc1ccc(S(=O)(=O)NC(=O)NC2CCS(=O)(=O)C2)cc1 (stereo unspecified) | -5 | 103 | 104 | 6
CCOC(=O)c1ccc2nc(C(F)(F)F)nc(N3CCOCC3)c2c1 | 0 | 102 | 104 | 0
CCN(CC)C(=O)n1cnc2cc(C)c(C)cc21 | -2 | 102 | 102 | -18
CCCn1c(NC(=O)NCc2ccccc2)c2ccccc2nc1=O | 45 | 100 | 106 | -4
CCOC(=O)c1ccc(N2N=C(C(F)(F)F)/C(=C/C=C/c3ccco3)C2=O)cc1 | 7 | 104 | 110 | -3
CC(C)CCNS(=O)(=O)Cc1ccccc1 | / | 104 | 101 | -2
OCc1c[nH]c(=S)n1Cc1ccccc1 | 7 | 106 | 101 | -7
(continued)
SMILES | MbtI inh | Polio RdRp inh | Polio RdRp inh intensity | MenB inh
Nc1nc(-c2ccccc2)c(-c2nc3ccccc3[nH]2)s1 | -35 | 104 | 98 | /
CCOc1ccccc1NC(=O)COC(=O)C1CC1C (stereo unspecified) | -16 | 101 | 106 | /
CC(NCC(=O)NN)c1ccccc1 (stereo unspecified) | 0 | 99 | 106 | -14
CC1CCCCC1NC(=O)NC(=O)CSc1ccc2c(c1)OCCO2 (stereo unspecified) | 5 | 104 | 100 | -11
CN(C)c1ccc(C(=O)N2CCCC2c2nnc(SCc3ccccc3)n2C)cc1 (stereo unspecified) | 18 | 102 | 101 | -1
CNc1sc(C(=O)c2ccc(Cl)cc2)c(N)c1C(N)=O | 26 | 101 | 104 | 4
CCN(CC)c1ccc(/C=N/N2C(=O)c3ccccc3C2=O)c(O)c1 | 8 | 100 | 105 | 7
COc1ccc(C2CC(c3cc(Cl)ccc3O)=NN2)cc1 (stereo unspecified) | 59 | 106 | 107 | -56
O=C(NC1CCCN(c2nc3ccccc3s2)C1)N1CC=CCC1 (stereo unspecified) | 9 | 103 | 97 | -33
N#Cc1ccsc1NC(=O)c1ccncc1 | 9 | 100 | 103 | -44
S=c1[nH]nc(Cn2cncn2)o1 | 3 | 99 | 105 | 0
O=C(O)c1ccccc1CSc1nc2ccccc2[nH]1 | 56* | 96 | 97 | 4
CCN(CC)CCNc1ccc(CO)c2sc3ccccc3c(=O)c12 | 3&8 | 101&98 | 102&100 | -8&-10
CCC1=Nc2cc(C(=O)NCc3ccco3)ccc2Sc2ccccc21 | 0 | 102 | 105 | 11
Cc1ccc(NC(=O)CCOc2ccccc2)cc1 | 3 | 103&101 | 103&101 | 12
CCc1ccc(N=C2NC(=O)CS2)cc1 | 8 | 100 | 102 | -30
CC(=O)O[C@H]1C[C@@]2(C)[C@@H](C[C@@H](O)[C@H]3[C@@]4(C)CC[C@@H](O)[C@@H](C)[C@@H]4CC[C@@]32C)/C1=C(\CCC=C(C)C)C(=O)O | -5 | 101 | 100 | 1
CC(C)c1cc(C(=O)O)c2cnn(C(C)C)c2n1 | 104 | / | / | 6
CCCSc1ncc(Cl)c(C(=O)Nc2ccc(S(=O)(=O)Nc3nccs3)cc2)n1 | -8 | 101 | 100 | -20
Cc1noc(C)c1COc1ccc(C(=O)OC2CCOC2=O)cc1 (stereo unspecified) | -4 | 110 | 111 | -13
Cc1ccccc1NC(=O)CC(=O)Nc1ccccc1C | -12 | 103 | 106 | -4
CCc1ccn2cc(-c3ccc4c(c3)OCO4)nc2c1 | 105 | 101 | 102 | 2
CCn1c(-c2ccco2)nn(CN(C)CC(=O)Nc2ccc(F)c(F)c2F)c1=S | 49 | 102 | 107 | -41
Cc1c(C(=O)OCC(=O)c2ccc[nH]2)sc2nc3n(c(=O)c12)CCC3 | -4 | 107 | 123 | -2
CCN(CC)S(=O)(=O)c1cccc(C(=O)N(Cc2cccs2)CC2CCCO2)c1 (stereo unspecified) | -9 | 108 | 96 | -32
Other records.
SMILES | MbtI inh | Polio RdRp inh | Polio RdRp inh intensity | MenB inh
Cc1cccc(-n2c(SCc3c(C)noc3C)nc3ccccc3c2=O)c1 | -5 | 108 | 95 | -21
O=C(O)C1C2CCC(O2)C1C(=O)N1CCN(C/C=C/c2ccccc2)CC1 (stereo unspecified) | -12 | 101 | 102 | -6
COc1cc(NC(=O)COc2cc(C)ccc2C)c(C(=O)O)cc1OC | -33 | 102 | 101 | -1
CC1CC1C(=O)OCC(=O)Nc1ccc(F)cc1 (stereo unspecified) | -3 | 102 | 102 | /
CC1(C)SC(c2ccc(C3NC(C(=O)O)C(C)(C)S3)cc2)NC1C(=O)O (stereo unspecified) | 2 | 99 | 101 | 20
O=C(Nc1nccs1)c1ccc(-c2ccc(Cl)cc2)o1 | 91 | 102 | 104 | -63
CC1CCC(C(C)C)C(OC(=O)C[n+]2ccsc2N)C1 (stereo unspecified) | -9 | 102 | 105 | /
CC(C)CC(NC(=O)C1CCC(C)CC1)C(=O)NCc1ccccn1 (stereo unspecified) | -8 | 102 | 105 | -11
O=C(c1ccc2ccccc2n1)N1CCCCC1 | -11 | 105 | 107 | /
O=C(O)c1ccc(CS(=O)(=O)c2ccccc2)o1 | 7 | 99 | 101 | -10
CC(C)CCn1nc(C(=O)OCC#N)c2ccccc2c1=O | 6 | 95 | 103 | 2

A portion from the list above:
SMILES | MbtI inh | Polio RdRp inh | Polio RdRp inh intensity | MenB inh
CCC1=Nc2cc(C(=O)NCc3ccco3)ccc2Sc2ccccc21 | 0 | 102 | 105 | 11
Cc1ccc(NC(=O)CCOc2ccccc2)cc1 | 3 | 103&101 | 103&101 | 12
CCc1ccc(N=C2NC(=O)CS2)cc1 | 8 | 100 | 102 | -30
CC(=O)O[C@H]1C[C@@]2(C)[C@@H](C[C@@H](O)[C@H]3[C@@]4(C)CC[C@@H](O)[C@@H](C)[C@@H]4CC[C@@]32C)/C1=C(\CCC=C(C)C)C(=O)O | -5 | 101 | 100 | 1
CC(C)c1cc(C(=O)O)c2cnn(C(C)C)c2n1 | 104 | / | / | 6
CCCSc1ncc(Cl)c(C(=O)Nc2ccc(S(=O)(=O)Nc3nccs3)cc2)n1 | -8 | 101 | 100 | -20
Cc1noc(C)c1COc1ccc(C(=O)OC2CCOC2=O)cc1 (stereo unspecified) | -4 | 110 | 111 | -13
Cc1ccccc1NC(=O)CC(=O)Nc1ccccc1C | -12 | 103 | 106 | -4
CCc1ccn2cc(-c3ccc4c(c3)OCO4)nc2c1 | 105 | 101 | 102 | 2
CCn1c(-c2ccco2)nn(CN(C)CC(=O)Nc2ccc(F)c(F)c2F)c1=S | 49 | 102 | 107 | -41
Cc1c(C(=O)OCC(=O)c2ccc[nH]2)sc2nc3n(c(=O)c12)CCC3 | -4 | 107 | 123 | -2
CCN(CC)S(=O)(=O)c1cccc(C(=O)N(Cc2cccs2)CC2CCCO2)c1 (stereo unspecified) | -9 | 108 | 96 | -32
Cc1cccc(-n2c(SCc3c(C)noc3C)nc3ccccc3c2=O)c1 | -5 | 108 | 95 | -21
O=C(O)C1C2CCC(O2)C1C(=O)N1CCN(C/C=C/c2ccccc2)CC1 (stereo unspecified) | -12 | 101 | 102 | -6
COc1cc(NC(=O)COc2cc(C)ccc2C)c(C(=O)O)cc1OC | -33 | 102 | 101 | -1
CC1CC1C(=O)OCC(=O)Nc1ccc(F)cc1 (stereo unspecified) | -3 | 102 | 102 | /
CC1(C)SC(c2ccc(C3NC(C(=O)O)C(C)(C)S3)cc2)NC1C(=O)O (stereo unspecified) | 2 | 99 | 101 | 20
O=C(Nc1nccs1)c1ccc(-c2ccc(Cl)cc2)o1 | 91 | 102 | 104 | -63
CC1CCC(C(C)C)C(OC(=O)C[n+]2ccsc2N)C1 (stereo unspecified) | -9 | 102 | 105 | /
CC(C)CC(NC(=O)C1CCC(C)CC1)C(=O)NCc1ccccn1 (stereo unspecified) | -8 | 102 | 105 | -11
